Source: PubChem
YopH PTP inh – blocks Yersinia enterocolitica YopH tyrosine phosphatase | fluorescence Ex485/Em525 | inhibition, %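 (about 10 µM by stock and volumes)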 | 140,000 compounds, 0.16% hits | AID 898;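 active means inhibition of 50% or more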;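 further: controls were vehicle for no effect and minimum signal wells for full effect; inactives centre near -20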
Mtb betalactam – beta-lactam sensitization of Mtb H37Rv; 330,000 compounds, 0.27% hits; AID 434955; inhibition, % at 25 µM; M. tuberculosis H37Rv growth with meropenem, percent inhibition; hits of this screen are not shown here;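 active means about 74% or more and at least 40 points above the plate without the antibiotic, then above 30% in a dose series; inconclusive means first-round hits that could not be retested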;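 further: growth measured after seven days incubation then overnight dye step; 0% = bacteria only wells and 100% = bacteria with antibiotic; twin plates without the antibiotic show which effects depend on it; some results filed as inactive read as strong as hits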
Mtb H37Rv – M. tuberculosis H37Rv growth inhibitors, H37Rv strain (AID 1626). 220,000 compounds, 0.95% hits. inhibition, % at 10 µM, or IC50 in µM where a hit was titrated. M. tuberculosis H37Rv growth inhibition; higher % means a stronger effect;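 active means confirmed in a dose series; inconclusive means inhibition above 80% but not taken into the dose series; inactive means below 80% or under 30% at every dose of the series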;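 further: bacteria incubated seven days before Alamar blue readout; 0% = bacteria only wells and 100% = bacteria with antibiotic wells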
RecA intein inh – blocks M. tuberculosis RecA intein splicing | cell-free RecA intein splicing, fluorescence | inhibition, %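 (about 9 µM by stock and volumes)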 | 290,000 compounds, 0.75% hits; in the data active means inhibition above about 30%; inconclusive means no clear call, values can overlap the other calls;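 further: 0% = vehicle wells and 100% = reference inhibitor control wells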
Target sequence (P9WHJ3 whole entry, looked up): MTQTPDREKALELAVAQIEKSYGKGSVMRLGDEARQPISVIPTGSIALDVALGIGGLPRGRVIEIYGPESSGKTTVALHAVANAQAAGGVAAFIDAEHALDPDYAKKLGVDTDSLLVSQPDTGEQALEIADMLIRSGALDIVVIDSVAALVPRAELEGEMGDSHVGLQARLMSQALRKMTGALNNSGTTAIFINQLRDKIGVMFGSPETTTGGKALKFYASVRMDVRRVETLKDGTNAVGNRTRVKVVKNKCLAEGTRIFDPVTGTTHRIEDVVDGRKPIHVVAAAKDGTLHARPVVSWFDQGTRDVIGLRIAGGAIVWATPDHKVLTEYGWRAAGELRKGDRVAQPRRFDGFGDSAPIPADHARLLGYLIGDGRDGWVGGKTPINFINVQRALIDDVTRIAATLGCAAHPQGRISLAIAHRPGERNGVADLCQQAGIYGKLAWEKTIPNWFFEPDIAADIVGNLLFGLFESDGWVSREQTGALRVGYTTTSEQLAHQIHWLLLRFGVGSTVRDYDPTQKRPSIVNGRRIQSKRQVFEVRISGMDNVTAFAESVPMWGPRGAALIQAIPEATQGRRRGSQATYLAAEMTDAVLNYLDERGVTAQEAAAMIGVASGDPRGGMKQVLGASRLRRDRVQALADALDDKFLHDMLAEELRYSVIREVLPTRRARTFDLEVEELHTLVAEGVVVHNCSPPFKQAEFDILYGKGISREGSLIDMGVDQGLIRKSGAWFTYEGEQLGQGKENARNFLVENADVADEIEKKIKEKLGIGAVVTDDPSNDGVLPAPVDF
Arbovirus inh – blocks arbovirus infection. 200,000 compounds, 0.37% hits. arbovirus infection cell-based antiviral screen. AID 1251. inhibition, % at 10 µM;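 active means inhibition from about 30%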;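 further: bluetongue infection of BSR cells; cell survival read as ATP light after 72 h; 0% = infected wells without compound and 100% = uninfected wells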
Arbovirus inh repeat – recorded beside Arbovirus inh, whose call it bears; inhibition, %; measured here: 10K subset replicate screen; many hits read low in the repeat;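 first of two repeat runs on a subset; 0% = infected and 100% = uninfected wells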
Active calls of the source: *; ? = inconclusive; nt = no result given; & = joins results of further samples.

SMILES	YopH PTP inh	Mtb betalactam	Mtb H37Rv	RecA intein inh	Arbovirus inh	others
CCN(CC)CCOC(=O)c1ccc(Cl)cc1	-5	4	-4%	0.2	14
O=C1C2CC=CCC2C(=O)N1CC(=O)N(Cc1ccccc1)C1CCS(=O)(=O)C1 (stereo not drawn)	-28	10	-12%	1.5	3
C=CCOc1c(Cl)cc(C(=S)N2CCCC2)cc1OCC	nt	4	nt	3.1	nt
O=C(Nc1ccc(Oc2cccc(C(F)(F)F)c2)nc1)c1cccs1	nt	40	10%	1.7	nt
Cc1ccccc1OCCC(=O)OCC(=O)N1c2ccccc2NC(=O)C1(C)C	nt	-1	nt	4.1	nt
CN(CC(=O)NCCc1ccccc1)S(=O)(=O)c1cnc[nH]1	-21	3	-7%	1.9	-1
COc1ccc(OC)c(N(CC(=O)Nc2cccc3ccccc23)S(C)(=O)=O)c1	nt	1	nt	2.0	nt
C=CCc1c(C)nc(-c2ccccc2)nc1N/N=C(\C)c1ccc(N)cc1	-32	3	66%	-6.6	-14
COc1cc(Nc2cccc[n+]2C)cc(OC)c1OC	nt	-3	nt	-1.9	nt
O=c1c2c(nc3cc(-c4ccc(F)cc4)[nH]n13)CCC2	-26	6	8%	-1.6	-7
O=C(O)C=C1CCN(c2ncc(C(F)(F)F)cc2Cl)CC1	-15	4	-5%	nt	2
CN(C)c1ccc(N=Nc2ccc(S(=O)(=O)O)cc2)c2ccccc12	nt	6	6%	nt	1
O=C(Nc1cccc(Cl)c1)Nc1cccc(Cl)c1	-6	4	1%	nt	6
O=C(Nc1ccc2nc3n(c(=O)c2c1)CCCC3)c1cc([N+](=O)[O-])ccc1F	-29	nt	7%	21	-38
Cn1c(CO)cnc1SCC(=O)c1ccc(Cl)cc1	nt	-10	-8%	-1.6	2
Cc1nn(Cc2ccc(Cl)c(Cl)c2)c(C)c1NC(=O)c1sc2ccccc2c1Cl	9	87	10%	1.6	-9
O=c1[nH]c(=S)[nH]c(O)c1N=Nc1cc2c(cc1[N+](=O)[O-])OCO2	nt	-2	0%	27	6
CCN1CCN(Cc2ccc(NC(=O)CC3Oc4ccc(C)cc4NC3=O)cc2)CC1 (stereo not drawn)	-38	-1	4%	-0.2	-13	Arbovirus inh repeat=-7
Cc1ccc(-c2csc(NC(=O)CN3CCOCC3)n2)cc1	nt	2	nt	1.2	nt
CC(C)NC(=O)CCn1nc(-c2ccc(Cl)cc2)c2ccccc2c1=O	nt	19	-1%	2.2	-10
COc1ccc(NC(=O)C2CCCN(S(=O)(=O)c3c(C)[nH]c(=O)[nH]c3=O)C2)cc1OC (stereo not drawn)	nt	4	-7%	0.2	2
CCOC(=O)c1cc2cc(OC)ccc2nc1C	-22	-11	-4%	1.5	-6
N#Cc1c(-c2ccccc2)nc(SCC(=O)Nc2nnc(C(F)(F)F)s2)[nH]c1=O	nt	-13	-8%	5.7	73*
CCCCC(OC(=O)c1ccco1)C(=O)NCc1ccc(C)cc1 (stereo not drawn)	nt	9	nt	-1.2	nt

Quoted at random: 3 entries already listed
SMILES	YopH PTP inh	Mtb betalactam	Mtb H37Rv	RecA intein inh	Arbovirus inh	others
CCOC(=O)c1cc2cc(OC)ccc2nc1C	-22	-11	-4%	1.5	-6
O=c1[nH]c(=S)[nH]c(O)c1N=Nc1cc2c(cc1[N+](=O)[O-])OCO2	nt	-2	0%	27	6
O=c1c2c(nc3cc(-c4ccc(F)cc4)[nH]n13)CCC2	-26	6	8%	-1.6	-7

Molecules from the list above that have a CF3 group (three):
SMILES	YopH PTP inh	Mtb betalactam	Mtb H37Rv	RecA intein inh	Arbovirus inh	others
O=C(Nc1ccc(Oc2cccc(C(F)(F)F)c2)nc1)c1cccs1	nt	40	10%	1.7	nt
O=C(O)C=C1CCN(c2ncc(C(F)(F)F)cc2Cl)CC1	-15	4	-5%	nt	2
N#Cc1c(-c2ccccc2)nc(SCC(=O)Nc2nnc(C(F)(F)F)s2)[nH]c1=O	nt	-13	-8%	5.7	73*

More structures follow.
SMILES	YopH PTP inh	Mtb betalactam	Mtb H37Rv	RecA intein inh	Arbovirus inh	others
CC1(C)c2[nH]c3ccccc3c2C[C@H]2C(=O)N(N)CC(=O)N21	nt	?	nt	-3.7	nt
O=C(c1ccc(CNc2c(N3CCCC3)c(=O)c2=O)cc1)N1CCN(C2CCCCC2)CC1	-14	69	nt	2.6	8
COc1ccc(C2N(c3ccc(Cl)cc3)N=C(C(C)=O)N(C)N2C(C)=O)cc1 (stereo not drawn)	nt	-1	-14%	1.4	-7
O=C(O)c1ccc(Sc2nnnn2-c2ccccc2)c([N+](=O)[O-])c1	-33	-2	-5%	1.2	2
CCOC(=O)c1c(C)[nH]c(C(=O)/C(C#N)=C/c2ccc(OC(F)F)c(OC)c2)c1C	-20	3	4%	3.8	-5
Cc1cc(C(=O)N2CCN(c3ncccn3)CC2)c2cc(F)ccc2n1	-41	3	-2%	3.5	-4
CCCCNC(=O)C(=O)NC(C)CCc1ccccc1 (stereo not drawn)	-6	-3	nt	0.5	3
COc1cccc(CNC(=O)CCC2CCCN(c3cc(C)nc(N4CCCC4)n3)C2)c1 (stereo not drawn)	nt	-6	2%	-0.4	-3
C=CCSc1nc2ccsc2c(=O)n1-c1cccnc1	nt	-10	1%	1.3	3
CC1=C(C(=O)NC(C)C)C2(CCC(C)CC2)OC1=O (stereo not drawn)	3	0	1%	-0.5	-2
CCN(CC)S(=O)(=O)c1ccc(N/N=C(\C)c2ccncc2)nc1	nt	4	nt	-1.1	nt
CC1(c2cccc([N+](=O)[O-])c2)CC(C)(C)N(C(=O)c2ccccc2)c2ccccc21 (stereo not drawn)	-13	3	4%	1.5	8
COc1cc(/C=C/C(=O)O)cc(S(=O)(=O)NCCCC(=O)O)c1OC	nt	0	2%	-1.2	8
Cc1cc(C)c(C(=O)CSc2nnc(C)c(=O)[nH]2)cc1C	nt	2	1%	2.7	4
Cc1cccc(NC(=O)C2CCCN(S(=O)(=O)c3c(C)nn(C)c3C)C2)c1 (stereo not drawn)	nt	-6	nt	0.3	nt
COc1ccc(/C=N/NC(=O)c2ccn[nH]2)cc1COc1ccc(Cl)cc1Cl	-27	60	13%	14	-9
COc1ccc(C(=O)CC(SCC(NC(C)=O)C(=O)O)c2ccc(Cl)cc2)cc1OC (stereo not drawn)	nt	92	nt	6.2	nt
Cc1ccc(C)c(N=Nc2nc3ccccc3n2C)c1	-37	1	1.3µM*	-1.3	4
COc1ccc(-n2c(/C=C/c3ccc(O)c(O)c3)nc3ccccc3c2=O)cc1	nt	2	nt	-1.1	nt
CCCOC(=O)CSc1nnc(-c2ccc(Cl)cc2Cl)o1	-37	100	?	4.4	3
CCN1CCCC1CNC(=O)c1cc2c(OC)cccc2[nH]1 (stereo not drawn)	nt	-4	nt	0.7	nt
CCN(CC)CCN(C(=O)c1ccc(Br)s1)c1nc2cc3c(cc2s1)OCCO3	nt	1	4%	1.3	1
CC12CC3CC(C)(C1)CC(CN1CCOCC1)(C3)C2	22	3	5%	-17	-2
O=C(OCC(=O)N1CCc2ccccc21)c1ccc(Cl)nc1	-87	nt	14µM*	0.2	11
c1ccc(C2=Nc3ccccc3SC2c2nc3ccccc3[nH]2)cc1 (stereo not drawn)	-9	nt	-5%	-0.4	-13
Cc1cc(C(=O)COc2cccc(-n3cnnn3)c2)c(C)n1-c1ccccc1	-48	-1	2%	11	-14
CC(=O)Nc1ccc(NC(=O)CSc2nc(=O)n(Cc3ccncc3)c3c2CCC3)cc1	nt	-1	nt	-0.6	nt
CCOC(=O)N1CCN(C(=O)c2ccccc2NS(=O)(=O)c2ccc(C)cc2)CC1	nt	-3	nt	1.8	nt
COc1cc(C2c3c(oc4ccccc4c3=O)C(=O)N2Cc2ccncc2)ccc1O (stereo not drawn)	-7	-11	-5%	-0.5	16
Nc1nc(NCCOCCO)nc(NCc2ccccc2)c1[N+](=O)[O-]	nt	3	nt	-2.4	nt
CC(C)COc1ccc(Br)cc1CNC(C)(C)C	nt	-9	0%	1.4	1
O=[N+]([O-])c1ccc(Oc2cccc(Br)c2)c2ccncc12	0	87	12%	53*	10
NC(N)=NS(=O)(=O)c1ccc(NC(=S)NC(=O)c2ccccc2)cc1	nt	-9	-1%	4.3	nt
Cc1ccc(NC(=O)N2CCCC2C(=O)NCc2ccc3c(c2)OCO3)cc1 (stereo not drawn)	nt	-9	nt	0.3	nt
COc1ccc(NCc2n[nH]nc2-c2ccccc2)cc1Cl	14	98	26µM*	2.2	28
CCCN(CCC)CCCNC(=S)Nc1ccc2nc3n(c(=O)c2c1)CCCCC3	-9	6	-6%	-1.1	-9
Cc1cc(=O)n2[nH]cc(-c3ccccc3)c2n1	nt	-1	nt	-2.1	nt
COC(=O)CSc1nc2sccc2c(=O)n1-c1ccccc1	nt	6	nt	1.2	nt
CCOc1cc(/C=N/NC(=O)Cc2ccc(C(F)(F)F)cc2[N+](=O)[O-])c(Br)cc1OC	-30	-7	-10%	0.7	-11
CCOc1cc(N2CCOCC2)c(OCC)cc1NC(=O)COC(=O)COc1ccc(C#N)cc1	nt	-4	nt	-6.8	nt
O=CN(CCN(C=O)CN1CCCCC1)CN1CCCCC1	-6	13	-2%	2.6	2
O=C(COC(=O)c1ccccc1-c1nc2ccccc2s1)NC1CCS(=O)(=O)C1 (stereo not drawn)	-38	7	1%	-0.7	-2
Cc1ccc(NC(=S)NC(=O)Cc2ccccc2)c(O)c1	nt	86	nt	0.7	nt
COc1ccccc1NC(=O)Nc1c(C)n(C)n(-c2ccccc2)c1=O	-17	6	-7%	0.3	0
NS(=O)(=O)c1ccc(CNC(=O)c2ccccn2)cc1	nt	-5	4%	-1.5	nt
COc1ccccc1CC(=O)Nc1ccc(O)cc1C(=O)O	-32	0	0%	-15	4
N=c1n(CCN2CCCCC2)c2ccccc2n1CC(=O)c1ccc(Cl)c(Cl)c1	nt	94	8.3µM*	4.5	nt
Cc1[nH]c2ccccc2c1/C=N/NC(=O)c1ccc(N)cc1	nt	9	nt	-1.1	nt
C/C=C/c1ccc(OCCCN2C(=O)NC(C)(C)C2=O)c(OC)c1	-44	-7	-8%	-1.3	-1
CCC(C)[C@H](NC(=O)N1CCn2c1nc1ccccc12)C(=O)NCc1ccccc1 (stereo partly drawn)	nt	1	nt	1.6	nt
O=C(CSc1ccccc1C(=O)O)NC1CCCCCCC1	-18	49	-6%	-3.9	0
COc1cc(OC)c2c(-c3ccccc3)cc(=O)oc2c1	nt	1	2%	0.1	0	Arbovirus inh repeat=-4
Cc1ccc(C)c(NC(=O)c2ccc3nccnc3c2)c1	nt	-11	nt	-1.0	nt
COc1ccc(Nc2cc(C)nc3ccc(OC)cc23)cc1	nt	-3	nt	4.3	nt
CC(=O)c1cccc(CN2CCN(Cc3ccc(F)cc3)C(CCO)C2)c1 (stereo not drawn)	nt	0	4%	2.4	-2
COc1cc(N)c(Cl)cc1C(=O)NC1CN2CCC1CC2 (stereo not drawn)	nt	3	-5%&-2%	-3.8	-2
COc1ccc(CC(=O)N2CCN=C2SCc2cccc([N+](=O)[O-])c2)cc1	nt	-4	3%	4.1	-10
O=C(COC(=O)CCc1nc2ccccc2c(=O)[nH]1)NCc1ccc(F)cc1	nt	1	3%	-4.3	nt
COc1ccc(C2C(C#N)=C(N)Oc3c2oc(CO)cc3=O)c(OC)c1OC (stereo not drawn)	-13	-4	0%	2.1	-7
NCCc1nnc(SCC(=O)Nc2ccc(Br)cc2)o1	nt	-1	nt	0.8	nt
The list continues:
SMILES	YopH PTP inh	Mtb betalactam	Mtb H37Rv	RecA intein inh	Arbovirus inh	others
COc1ccc(S(=O)(=O)Nc2nc3c(s2)CCCC3)cc1	nt	-7	-3%	-0.4	26
CCC1CN(C)C2Cc3c([nH]c4ccccc34)C(=O)CC1C2C(=O)OC (stereo not drawn)	nt	-5	-9%	0.3	nt
COC(=O)CCCNC(=O)c1ccc2oc(CCCc3ccccc3)nc2c1	nt	-2	nt	1.2	nt
N/C(=N\OC(=O)CCCC(=O)O)c1ncc(C(F)(F)F)cc1Cl	nt	-1	4%	0.1	5
CC(=O)C1=C(O)C(=O)N(Cc2ccccc2)C1c1cccc([N+](=O)[O-])c1 (stereo not drawn)	nt	6	nt	-1.2	nt
CCCCOc1ccccc1NC(=O)CSc1nnnn1C(C)(C)C	-21	-2	4%	2.2	3
O=C1NC(=O)N(CCNc2ncc(C(F)(F)F)cc2Cl)C(=O)C1/C=N/OCc1c(F)cccc1Cl (stereo not drawn)	-10	1	nt	-3.2	-1
CCCC(=O)Nc1ccc(N2CCN(C(=O)c3cccs3)CC2)cc1	-26	-9	-3%	-2.4	-3
COc1ccc(CNC(=O)C(=O)NC2CCC(C)CC2)cc1 (stereo not drawn)	nt	-1	1%	-0.6	1
CN1c2ccsc2C(O)=C(C(=S)Nc2ccc(F)c(Cl)c2)S1(=O)=O	18	67	-6%	-3.7	22
O=C(O)c1cccc(-n2cccc2/C=C2\NC(=O)N(Cc3ccc(F)cc3)C2=O)c1	nt	-6	3%	1.3	16

An excerpt; the hit share may differ from the screen's.
